# Screening results deposited in PubChem BioAssay by National Center for Advancing Translational Sciences (NCATS).
# Resorufin autofl: compound fluoresces in the resorufin spectral region | Compound fluorescence, resorufin region 547/598 nm, buffer; active compounds read high | max dye-equivalent concentration, M | 59,000 compounds, 0.04% hits; active = above 10 nM dye equivalent; inconclusive = 1 to 10 nM; inactive = 1 nM or less; a few of its hits are not listed in these tables; also: highest value over a series up to 38 µM
#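 Dye-equivalent concentration values derive from comparing each well's 547/598 nm fluorescence against resorufin standards included on every plate. Incubation was 15 min at room temperature in 100 mM Tris, pH 8.0.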
# A647 autofl: compound autofluorescence in A647 spectral region | Compound fluorescence, A647 channel (570/671 nm), Tris buffer | max dye-equivalent concentration, M | 59,000 tested, under 10 active; active means above 1 µM dye equivalent; inconclusive means 0.1 to 1 µM; inactive means 0.1 µM or less;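 also: values scaled relative to a standard on each plate; highest value over a series up to 38 µM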
#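 Fluorescence read (570 nm ex, 671 nm em) after 15 min RT incubation of compounds in 100 mM Tris buffer, pH 8.0; values expressed as dye-equivalent concentration against a six-point A647 standard series on each plate.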
# TSHR agonist: activates the human thyroid stimulating hormone receptor; HEK293-CNG-TSHR cells (CNG channel as cAMP sensor), membrane potential dye, cAMP; Potency, µM (doses to about 57.1 µM), inactives show at the highest dose activation, most hits filed as activators; 73,000 compounds, 0.48% hits; active = well fitted activation curve of enough size with the parental cells flat; inconclusive = any curve in the parental cells; inactive = parental cells flat and receptor cells flat or falling; also: potency is read from the fitted curve at half-maximal effect; % of control where 0% means no effect; weak receptor curves with flat parental cells got no call and are not listed
# Target sequence (P16473 whole entry, looked up): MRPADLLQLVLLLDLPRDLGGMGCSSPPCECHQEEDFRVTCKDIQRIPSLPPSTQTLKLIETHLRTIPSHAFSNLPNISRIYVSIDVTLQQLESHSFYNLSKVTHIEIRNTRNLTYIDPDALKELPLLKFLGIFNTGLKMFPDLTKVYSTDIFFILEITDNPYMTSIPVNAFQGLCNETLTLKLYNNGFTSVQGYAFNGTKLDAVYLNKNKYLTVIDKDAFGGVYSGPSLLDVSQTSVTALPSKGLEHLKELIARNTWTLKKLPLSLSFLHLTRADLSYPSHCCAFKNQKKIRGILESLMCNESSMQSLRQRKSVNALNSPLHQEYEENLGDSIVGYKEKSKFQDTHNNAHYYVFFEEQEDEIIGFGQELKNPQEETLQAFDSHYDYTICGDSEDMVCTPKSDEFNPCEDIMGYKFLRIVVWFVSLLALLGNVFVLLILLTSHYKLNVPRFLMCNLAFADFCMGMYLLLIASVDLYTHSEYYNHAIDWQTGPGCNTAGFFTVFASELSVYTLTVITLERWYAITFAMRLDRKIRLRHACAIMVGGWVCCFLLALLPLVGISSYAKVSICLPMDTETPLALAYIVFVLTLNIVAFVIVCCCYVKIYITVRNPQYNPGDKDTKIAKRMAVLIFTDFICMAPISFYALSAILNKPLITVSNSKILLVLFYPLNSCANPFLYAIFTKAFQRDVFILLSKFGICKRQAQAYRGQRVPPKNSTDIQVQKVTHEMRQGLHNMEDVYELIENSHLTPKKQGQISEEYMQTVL
#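 HEK 293 cells stably expressing TSHR and a modified CNG channel, with CNG-only parental cells as counterscreen, were preloaded 60 min at room temperature with membrane potential dye containing 100 uM RO 20-1724. Compound exposure was 30 min, and depolarization was read as fluorescence at 590 nm.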
# A488 autofl: A488 region autofluorescence; 59,000 compounds, 0.1% hits; compound autofluorescence, A488 spectral region, dye equivalency; active compounds read high; max dye equivalency, M; active = above 10 nM dye equivalent; inconclusive = 1 to 10 nM; inactive = 1 nM or less; about half of its hits are not listed in these tables;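 also: highest value over a series up to 38 µM; compound alone in buffer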
#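 Readout is A488 dye-equivalent concentration, calibrated by a per-plate six-point Alexa 488 series. Compounds in 100 mM Tris buffer pH 8.0 were incubated 15 min at room temperature. Plates were imaged using 480 nm excitation/540 nm emission filters.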
# AID923: qHTS Assay for Allosteric/Competitive Inhibitors of Caspase-1: Spectroscopic Profiling in AFC Spectral Region | compound fluorescence, AFC spectral region (405/520 nm); almost no hit is shown here | Potency, µM (titrated, usually from 57.5 µM), for the others: top-dose fluorescence increase, actives largely listed as activators | 75,000 compounds, 1.1% hits; active = well fitted activation curve with a large enough effect; inconclusive = small, poorly fitted or top-dose-only effect;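 also: potency is read from the fitted curve at half-maximal effect; 0% is about no effect; scaled to a free AFC standard on each plate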
#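 Compound autofluorescence profiled at 405 nm ex/520 nm em during kinetic caspase 1 run (50 nM enzyme, 5 uM Ac-WEHD-AFC, HEPES pH 7.5, 10 mM DTT). Titration up to 57 uM; baseline from regression intercept, normalized to AFC standard curve.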
# * hit, by the source's call; i = inactive; ? = inconclusive; nt = not tested or not shown; [ ] = dose if it differs, or a comment. An excerpt; the hit share may differ from the screen's.
SMILES,Resorufin autofl,A647 autofl,TSHR agonist,A488 autofl,AID923
COc1ccccc1CNc1nc(-c2ccoc2)nc2ccccc12,i,2.2e-09,?,i,1.2%
CC1CCCN(S(=O)(=O)c2coc(C(N)=O)c2)C1 (centres undefined),nt,nt,2%,nt,-1.1%
O=C1CCCC=C1[C@H](O)CCCCBr,nt,nt,3%[11.4 µM],nt,-2.6%[11.5 µM]
O=C1c2ccccc2S(=O)(=O)N1CC(O)COc1ccc(Br)cc1 (centres undefined),nt,nt,-11%,nt,2.6%
C#CCN1C(C)=C(C(=O)OC)[C@@H](c2cccc([N+](=O)[O-])c2)C(C(=O)OCC)=C1C,i,1.9e-09,nt,i,-0.6%
C=CCNc1nc(C)nc(OC)n1,i,8.8e-08,nt,i,nt
Cc1nc(SCn2nnc3ccccc3c2=O)nc(C)c1C,i,2.5e-08,7%,i,0.0%
COc1ccccc1NC(=O)Cn1c(=O)n2nc(C)nc2c2ccccc21,nt,nt,2%,nt,3.7%
COCCNC(=O)C1(CC(C)C)C=CCN1C(C)=O (centres undefined),nt,nt,4%,nt,-0.3%
Cc1cc(NC(=O)CSc2ccc3nnc(-c4ccccn4)n3n2)no1,nt,nt,-16%,nt,2.7%
COC(=O)CNC(=O)[C@@]1(Cc2ccccc2)C=C[C@@H](C)N1C(=O)c1ccccc1,nt,nt,?,nt,1.9%
O=C(c1ccc2c(c1)OCCO2)C1CCN(S(=O)(=O)c2cccc(F)c2)CC1,i,1.5e-08,12%,i,-1.0%

# Entries of single compounds as entered above. Order of screens: Resorufin autofl	A647 autofl	TSHR agonist	A488 autofl	AID923
# Profile of COCCNC(=O)C1(CC(C)C)C=CCN1C(C)=O (centres undefined) : nt	nt	4%	nt	-0.3%
# Profile of COC(=O)CNC(=O)[C@@]1(Cc2ccccc2)C=C[C@@H](C)N1C(=O)c1ccccc1 : nt	nt	?	nt	1.9%
# Profile of Cc1nc(SCn2nnc3ccccc3c2=O)nc(C)c1C : i	2.5e-08	7%	i	0.0%

# (listing goes on)
SMILES,Resorufin autofl,A647 autofl,TSHR agonist,A488 autofl,AID923
O=S(=O)(c1cccc2c(S(=O)(=O)N3CCCC3)cccc12)N1CCCC1,i,1.7e-08,5%,i,-0.2%
Cc1c(C)[n+](=O)c(-c2ccco2)c(C)n1[O-],nt,nt,1%[11.4 µM],nt,3.0%
CC(=O)N1CCC[C@@]2(CCN(c3ccncc3)C2)C1,i,3.2e-08,6%,i,4.1%
Cc1cccc(S(=O)(=O)Nc2cccc(-c3cn4ccsc4n3)c2)c1,i,4.9e-09,23%,i,0.0%
CCOC(=O)C(CCc1nnc(N)s1)C(=O)OCC,nt,nt,2%,nt,0.6%
Cc1nnc(SCc2nc3ccccc3[nH]2)s1,i,1e-09,nt,i,nt
CC(=O)N1CCc2cc(Br)cc(S(=O)(=O)N3CCN(C(=O)c4ccco4)CC3)c21,i,8.8e-09,?,i,-0.4%
C=C(C)Cn1c(N2CCN(CC)CC2)nc2c1c(=O)[nH]c(=O)n2C,nt,nt,-13%,nt,-1.3%
CCCC(=O)Nc1ccc(NC(=O)c2cccs2)cn1,i,2.8e-09,-4%,i,-0.3%
COc1ccc(-c2cc3ccccc3n2CC(O)Cn2nc(C)cc2C)cc1 (centres undefined),i,3.5e-08,1%,i,4.1%
N#CCC(=O)Nc1ncn(Cc2ccccc2Cl)n1,i,3.4e-09,-1%,i,1.2%
CCN1CCN(Cc2ccccc2NC(=O)Nc2ccc(C)cc2)CC1,i,4.2e-08,-2%,i,-1.3%
Cc1cc(N(C)C)c(C#N)c(N2CCOCC2)n1,i,1.8e-08,8%,i,2.2%
COC1C(O)COC1/C=C/c1ccccc1 (centres undefined),nt,nt,0%[11.4 µM],nt,-0.1%[11.5 µM]
COc1cccc(NC(=O)c2ccccc2SC)c1,i,1e-08,11%,i,1.1%
CCS(=O)(=O)N1CCC(C(=O)NCC2CCCO2)CC1 (centres undefined),i,2.3e-08,-3%[11.4 µM],i,-0.3%
O=C(NC1CCCCC1)NC1CC2CCC(C1)N2C(=O)NCc1ccccc1 (centres undefined),i,4.8e-08,5%,i,-0.1%
COc1ccc(CCNS(=O)(=O)c2ccc3c(c2)CCN3C(=O)CCC(=O)O)cc1OC,i,2.1e-08,0%,i,-0.5%
OC(COCc1ccccc1)CN1CCN(c2ccccc2F)CC1 (centres undefined),i,1.6e-08,4%[11.4 µM],i,-1.4%
Nc1c(-c2ccccc2)n[nH]c1-c1ccccc1,i,7.5e-09,-20%,i,1.5%
Cc1onc(-c2ccccc2)c1C(=O)NCc1ccc2c(c1)OCO2,nt,nt,-1%,nt,-0.1%
COC(=O)C1C2C=CC3(CN(Cc4ccco4)C(=O)C13)O2 (centres undefined),i,7e-09,nt,i,-0.4%
CCCS(=O)(=O)N1CCCC(C(=O)NCCCN(Cc2ccccc2)C(C)C)C1 (centres undefined),i,5e-09,2%,i,1.2%
CC(=O)Nc1ccc(S(=O)(=O)N2CCN(c3cc(C)nc4ccccc34)CC2)cc1,i,4.4e-09,-18%,i,1.5%

# 3 entries picked at random from those above, as already listed:
SMILES,Resorufin autofl,A647 autofl,TSHR agonist,A488 autofl,AID923
CCS(=O)(=O)N1CCC(C(=O)NCC2CCCO2)CC1 (centres undefined),i,2.3e-08,-3%[11.4 µM],i,-0.3%
Nc1c(-c2ccccc2)n[nH]c1-c1ccccc1,i,7.5e-09,-20%,i,1.5%
COc1cccc(NC(=O)c2ccccc2SC)c1,i,1e-08,11%,i,1.1%

# Next section:
SMILES,Resorufin autofl,A647 autofl,TSHR agonist,A488 autofl,AID923
COc1ccc(C(=O)NCCNC(C)=O)cc1S(=O)(=O)NCc1ccc(Cl)cc1,i,1e-09,-3%[11.4 µM],i,-0.2%
CNC(=O)N(O)C1N(C)C(=O)N(CC(=O)OC)C1(C)C (centres undefined),i,1e-09,-3%,i,2.2%
CCC(=O)Nc1ccc(NC(=O)c2cccc(OC)c2)nc1,i,6.4e-09,-9%,i,0.1%
COc1cc(-c2nc(Cc3c(F)cccc3Cl)no2)cc(OC)c1OC,i,2.8e-08,1%,i,0.0%
O=C(NCC1CCCCC1)C1CCCN(C(=O)NC2CCCCC2)C1 (centres undefined),i,2.2e-08,0%,i,1.1%
CCOC(=O)c1cc(NC(=O)N2CCCCC2)c(C)nc1C,i,3.2e-08,-2%,i,-1.9%
COc1cc(C2N(c3ccccc3)CCN2c2ccccc2)cc(OC)c1OC,nt,nt,3.2µM*,nt,-0.1%
COc1ccc(Oc2ncc3nc(-c4ccc(OC)cc4)c(=O)n(C)c3n2)cc1,i,7e-09,-6%,i,3.6%
Cc1cc(C(=O)CSc2nnc(-c3ccc(Cl)cc3)n2CC2CCCO2)c(C)n1C (centres undefined),i,9.5e-09,3%,i,-1.3%
O=C1C=C(O)CC(c2ccc(Cl)cc2)C1 (centres undefined),nt,nt,14%,nt,2.4%
CCc1nc(N)c(C#N)c(-c2cccnc2)c1C,i,1e-09,?,i,1.4%
CCC1Oc2ccc(C)cc2N(CC(=O)N2CCN(c3ccc(F)cc3)CC2)C1=O (centres undefined),nt,nt,?,nt,-1.5%
O=C(NCc1ccccn1)c1c(Cl)cccc1Cl,i,1e-09,-2%[11.4 µM],i,-0.7%
COc1ccc(CN(C)CCc2ccccn2)cc1OC,i,1.7e-08,5%,i,-0.6%
CN(C)c1ccc(NC(=O)c2cccc(N3C(=O)CCC3=O)c2)cc1,nt,nt,-1%,nt,0.1%
Cc1ccc2c(c1)N(CCC(=O)NC1CC1)C(=O)C(C)O2 (centres undefined),i,4.4e-09,4%,i,1.8%
CC(C)(C)c1ccc2c(c1)N(CC(=O)O)C(=O)CO2,i,2.4e-08,7%,i,-0.8%
CCCCC(c1nnnn1Cc1ccco1)N1CCN(c2nc3ccccc3s2)CC1 (centres undefined),i,4.7e-08,?,i,-1.4%
CN1C(=O)N(S(=O)(=O)c2ccc(F)c(F)c2F)C(=O)C1(C)C,i,2.6e-08,-5%,i,0.6%
CCC(Sc1nc(N)c(NC(=O)c2ccc(OC)c(OC)c2)c(=O)[nH]1)C(=O)OC (centres undefined),nt,nt,?,nt,-4.3%
CSc1nsc(SCCN2C(=O)c3ccccc3C2=O)n1,i,6.4e-09,?,i,-1.4%
O=C(OCc1ccccc1)Oc1cncc(C(=O)O)c1,i,1.7e-08,-5%,i,0.1%
Nc1nonc1/C(=N/O)N1CCN(CCO)CC1,nt,nt,-1%,nt,1.2%
O=C(Cn1cnc2ccccc2c1=O)NCCC(=O)N1CCN(Cc2ccccc2)CC1,i,1.5e-08,2%,i,1.1%
O=C(OCCN1CCCCC1)c1ccccc1Cl,i,3.8e-09,5%,i,0.9%
CC(C)CC(NC(=O)OC(C)(C)C)C(=O)NCc1ccccc1 (centres undefined),i,1.1e-09,nt,i,nt
CCCCOC(=O)C1=C(C)Nc2nnnn2C1c1ccc(OC)c(OC)c1OC (centres undefined),i,1.7e-08,10%,i,-1.9%
CC(C)C(NC(=O)CC12CC3CC(CC(C3)C1)C2)C(=O)O (centres undefined),i,1e-09,7%,i,0.1%
O=C(NCCC1=CCCCC1)C1CCCN(S(=O)(=O)c2ccccc2)C1 (centres undefined),i,2.5e-08,30%,i,-1.3%
CC1CCN(S(=O)(=O)c2ccc(NC(=O)c3cccs3)cc2)CC1,nt,nt,-12%[11.4 µM],nt,-0.1%
O=C(CSc1nnc2scc(-c3ccccc3)n12)NCc1ccco1,i,2.9e-08,3%,i,-0.3%
Cc1ccc(Cn2nnc(C(=O)Nc3cccc(C)c3C)c2N)cc1,i,1e-09,3%,i,-0.4%
CC(C)=NO[C@@H](C)CN1CCCc2nc(C)c(C)cc21,nt,nt,-4%[11.4 µM],nt,3.3%[11.5 µM]
Cc1cc(=O)n(C)c(=O)n1CCCNc1ccccc1,i,2.6e-08,2%,i,-1.0%
C#CCCCO/N=C1/C[C@@H](O)[C@@H](O)[C@@H]2[C@@H]3C(=O)N([C@@H](C)c4ccccc4)C(=O)[C@H]3CC[C@@H]12,nt,nt,8%[11.4 µM],nt,-0.3%[11.5 µM]
CCN(CC)S(=O)(=O)c1ccc(C(=O)NCCc2cc3c(OC)ccc(OC)c3[nH]c2=O)cc1,i,1e-09,14%,i,0.0%
c1ccc2c(c1)NC1(CCCCC1)n1c-2nc2ccccc21,i,5.4e-09,nt,i,17%
CCOc1ccc(N(CC(=O)N2CC=C(c3ccccc3)CC2)S(=O)(=O)c2c(C)noc2C)cc1,nt,nt,?,nt,2.2%
Cc1ccc(S(=O)(=O)NCCN(CCNS(=O)(=O)c2ccc(C)cc2)S(C)(=O)=O)cc1,i,6.7e-09,2%,i,0.8%
CCCCCCOc1ccc(N2C(=O)CC(N3CCN(C(=O)c4ccco4)CC3)C2=O)cc1 (centres undefined),i,3.5e-09,nt,i,nt
O=C(CSc1nnnn1C1CCCC1)Nc1cccc(NC(=O)c2ccco2)c1,i,4.1e-08,0%,i,1.5%
COc1cc(OC)cc(C(=O)N2CCC(n3c(C)nc4cc(F)ccc43)CC2)c1,i,2.1e-09,2%,i,5.3%
CCCCCc1nnc(NC(=O)OCCC)s1,nt,nt,1%,nt,-1.6%
CCOc1ccc(N(CC(=O)Nc2ccc(C)c(C)c2)S(=O)(=O)c2c(C)noc2C)cc1,nt,nt,17%,nt,-3.2%
Cc1nnc(SCC(=O)Nc2sccc2C(N)=O)n1Cc1ccccc1,i,1e-09,-1%,i,-1.1%
CC(=O)Nc1ccc(S(=O)(=O)Nc2cc(C)c(-n3nc4ccccc4n3)cc2O)cc1,i,5.8e-09,27%,i,0.1%
CN(C)c1ccccc1CN1CCCN(Cc2ccccc2N(C)C)C1c1ccncc1,i,1e-09,13%[11.4 µM],i,0.2%[11.5 µM]
